Screening results deposited in PubChem BioAssay by Southern Research Institute.
Mtb growth: Mycobacterium tuberculosis H37Rv growth inhibition, cell based, confirmatory dose response (AID 1949); most inactive calls were filed without a number and no value below 0 was filed; 100,000 compounds, 1.6% hits; one-dose inhibition, % at 10 µg/mL; IC50 in µg/mL for titrated hits;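 active = confirmed in a dose series; inconclusive = about 50% or more but not retested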;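 note: bacteria grown 7 days with compound before Alamar blue readout; 0% = untreated bacteria and 100% = reference antibiotic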
The depositor's hits bear a star; i = inactive; ? = inconclusive. This is a subset; count on the stated rates, not on these rows.

SMILES,Mtb growth
COC(=O)c1cc(C(=O)Nc2ccc(S(=O)(=O)N3CCCC3)cc2)cc([N+](=O)[O-])c1,i
COc1cccc(C2CC(C(F)(F)F)n3ncc(C(=O)N4CCCc5ccccc54)c3N2)c1 (stereo not given),6.1%
COC(=O)NNC(=O)Nc1ccc(C)c(C)c1,i
O=C(Nc1ccccc1)Nc1nnc(CSCc2ccc(F)cc2)s1,i
N#Cc1ccc(-c2ccc(OCC(=O)NCc3ccccc3)cc2)cc1,i
CCc1ccc(NC(=O)CSc2nnc(Cc3ccc(OC)cc3)n2CC)cc1,i
CC1CCCCN1C(=O)C12CC3CC(CC(C3)C1)C2 (stereo not given),i
O=C(CCc1ccccc1)NC(=S)Nc1cccc(C(=O)O)c1,i
COc1ccc(Cl)cc1NC(=O)Cc1ccc(C)cc1,10.0%
COc1ccc(-c2n[nH]c(C)c2-c2cc(OC)ccc2O)cc1,i
O=C1c2ccccc2C(=O)N1CCc1nn[nH]n1,i
N=C1C(c2nc3ccccc3s2)=C(O)CN1c1ccccc1F,i
COc1cccc(Oc2ncnc3sc(-c4ccccc4)cc23)c1,i
CCOc1ccc(NC(=S)NC(=O)CC2CC(C)(C)OC2=O)cc1 (stereo not given),i
COc1cc(C(C)=O)ccc1OCC(O)CNC1CCCCCC1 (stereo not given),1.1%
COc1cccc(COc2ccc3ccc(=O)oc3c2)c1,i
COc1cc2c(cc1OC)C(c1ccc(-c3ccc(Cl)cc3Cl)o1)=NCC2,0.5%
CC(c1ccccc1)N1C(=O)C2C3CCC(C3)C2C1=O (stereo not given),i
Cc1cc(=O)[nH]c(SCC(=O)Nc2cc(C)on2)n1,i
Cc1ccc(S(=O)(=O)N(CC(=O)N2CCC(Cc3ccccc3)CC2)c2ccccc2F)cc1,i
Cc1cc(C(=O)Nc2ccc(Cl)cc2C(F)(F)F)no1,i
Brc1cnc(N2CCOCC2)nc1N1CCCCC1,i
CCC1(C)Cc2ccccc2-c2c1c(=O)n(-c1ccc(C)cc1)c1nncn21 (stereo not given),2.3%
CCc1c(SCC(=O)O)nc2ccccc2c1C,i
COc1ccc(CCNC(=O)CSc2nnc(CSc3nc4ccccc4s3)n2C)cc1OC,i
COc1ccc(OC)c(-c2cc3c([nH]c(=O)c4c(=O)cc(C(F)(F)F)[nH]c43)s2)c1,i
Cc1ccc2nc(-c3cccnc3)cc(C(=O)NCc3ccc(C(=O)O)cc3)c2c1,0.2%
CC(=O)c1cccc(NC(=O)C(C)N(c2ccc(C)cc2)S(C)(=O)=O)c1 (stereo not given),i
COC(=O)c1ccc2nc(C)cc(Nc3cccc(OC)c3)c2c1,0.7%
Cc1ccc(S(=O)(=O)c2c(N)n(CCN3CCOCC3)c3nc4ccccc4nc23)cc1,i
O=C(COc1ccc(C(=S)N2CCOCC2)cc1)N1CCCC1,i
O=C(O)c1cccnc1SC1CC(=O)N(c2cccc(C(F)(F)F)c2)C1=O (stereo not given),i
CS(=O)(=O)N1CCN(c2ccccc2NC(=O)c2sc3ccccc3c2Cl)CC1,5.1%
CCOCC(=O)Nc1ccc(S(=O)(=O)N2CCCC2)cc1,i
COc1ccc2nc(NC(=O)c3cncc(Br)c3)sc2c1,i
Cc1ccc(SCc2cc(=O)[nH]c(N3CCN(Cc4ccc5c(c4)OCO5)CC3)n2)cc1,i
CCc1cc(C(=O)O)c(NC(=O)c2ccccc2F)s1,i
CCOc1ccc(NS(=O)(=O)c2ccc(SC)cc2)cc1,i
O=c1c2cc(Cl)cc(Cl)c2nc(CN2CCOCC2)n1-c1cccc(C(F)(F)F)c1,i
COc1ccc(NC(=O)c2ccccc2NC(=O)COc2cccc(OC)c2)cc1,i
Cc1cc(NS(=O)(=O)c2ccc(NC(=S)Nc3ccccc3)cc2)nc(C)n1,i
Cc1ccc2nc(NC(=O)CN3CCOCC3)sc2c1,i
O=C1CC(NCc2ccco2)C(=O)N1c1ccc(I)cc1 (stereo not given),i
Nn1c(=O)c2ccccc2n2c(SCC(=O)N(c3ccccc3)c3ccccc3)nnc12,i
Cc1c(NC(=O)N2CCCCCC2)c(=O)n(-c2ccccc2)n1C,i
O=C1CC(N(Cc2ccccc2)Cc2ccco2)C(=O)N1c1ccccc1 (stereo not given),i
Cc1ccccc1C(=O)NCCCCc1ccccc1,7.0%
Cc1cc(C)cc(CSCC(=O)O)c1,i
O=C(c1ccccc1Cl)N1CCN(c2ccc([N+](=O)[O-])c(NCc3cccnc3)c2)CC1,i
COc1ccc([N+](=O)[O-])cc1NC(=O)CN(c1ccc(I)cc1)S(C)(=O)=O,i
Cc1ccc(S(=O)(=O)N(C)c2ccc(C(=O)NCCC3=CCCCC3)cc2)cc1,i
CCOc1ccccc1-c1nnc(SCC(=O)Nc2ccc(I)cc2)o1,1.4%
CCOC(=O)c1ccc(NC(=O)C2CC(=O)N(c3ccc(C)cc3)C2)cc1 (stereo not given),i
O=C(CN1CCN(c2ccccc2)CC1)Nc1ccc(Oc2ccccc2)cc1,i
C=CCN(C(=O)NC(=S)c1ccccc1)c1ccccc1,1.3%
CCOc1ccccc1N1CCN(C(=O)Nc2ccccc2)CC1,i
O=C(Nc1ccc(F)c(Cl)c1)c1ccccc1I,i
Oc1ccc(C(=S)N2CCN(Cc3ccccc3)CC2)cc1,0.3%
CC(C)OC(=O)CC(=O)COc1noc2nc3c(cc12)CCCCC3,i
CCOC(=O)N1CCN(C(=S)Nc2ccc(Nc3ccccc3)cc2)CC1,i

Remaining list, next part
SMILES,Mtb growth
COc1ccc(OC)c(C2=C[N+](=O)C(C)(C)C(C)(C)N2[O-])c1,1.1%
COc1ccccc1N1CCN(CC(O)COC(C)C)CC1 (stereo not given),i
COc1ccc(N2CCN(C(=O)C(C)Oc3ccccc3)CC2)cc1 (stereo not given),2.7%
Cc1ccc(S(=O)(=O)NC2c3cccc4cccc(c34)C2Sc2nnnn2-c2ccccc2)cc1 (stereo not given),i
Cc1cccc(C(C)C)c1NC(=O)CSCc1c(Cl)cccc1Cl,i
COc1ccc(C2/C(=C(\O)c3ccccc3)C(=O)C(=O)N2CCCCCC(=O)O)c(OC)c1 (stereo not given),i
Cc1cc(NC(=O)c2cccc(S(=O)(=O)N3CCC(C)CC3)c2)no1,i
C=CCc1cccc(Cl)c1OCCCNC1CCCC1,i
CC(C)(C)NS(=O)(=O)c1ccc(NC(=O)c2cccc(Cl)c2)cc1,i
CNC(=O)C(=O)Nc1cc(OC)ccc1OC,2.5%
CC1CCCC(C)N1C(=O)CSc1nnc(Cc2ccccc2)n1-c1ccc(F)cc1 (stereo not given),0.3%
Cn1c(SCC(=O)Nc2ccc(Oc3ccccc3)cc2)nnc1-c1ccc([N+](=O)[O-])cc1,i
CC(=O)CSc1ncnc2scc(-c3ccc(Br)cc3)c12,2.2%
Cc1cccc(N(C2C=CS(=O)(=O)C2)S(=O)(=O)c2ccccc2)c1 (stereo not given),i
CC(=O)Nc1ccc(S(=O)(=O)Nc2ccccc2I)cc1,i

Among those listed so far, 7 contain a COOH group:
SMILES,Mtb growth
O=C(CCc1ccccc1)NC(=S)Nc1cccc(C(=O)O)c1,i
CCc1c(SCC(=O)O)nc2ccccc2c1C,i
Cc1ccc2nc(-c3cccnc3)cc(C(=O)NCc3ccc(C(=O)O)cc3)c2c1,0.2%
O=C(O)c1cccnc1SC1CC(=O)N(c2cccc(C(F)(F)F)c2)C1=O (stereo not given),i
CCc1cc(C(=O)O)c(NC(=O)c2ccccc2F)s1,i
Cc1cc(C)cc(CSCC(=O)O)c1,i
COc1ccc(C2/C(=C(\O)c3ccccc3)C(=O)C(=O)N2CCCCCC(=O)O)c(OC)c1 (stereo not given),i

The list continues.
SMILES,Mtb growth
O=C(NCCCc1nc2ccccc2[nH]1)c1cccs1,i
Cc1ccc(NC(=O)CSc2n[nH]c(N)n2)cc1Cl,i
Cc1c(Cl)cccc1N1C(=O)C2C3C=CC(C3=C3CCCCC3)C2C1=O (stereo not given),i
O=C(Cc1ccccc1)NC(=S)Nc1ccc(I)cc1F,10.0%
Cc1cc(C(=O)Nc2cccc3cccnc23)ccc1[N+](=O)[O-],i
COc1ccc(NC(=O)c2ccc(CN3CCOCC3)cc2)c(OC)c1,i
CCC(=O)NC(=S)Nc1ccccc1-c1nc2ccccc2s1,i
S=C(Nc1ccc(Br)cc1)N1CCCC1,9.7%
O=C(CC1NCCNC1=O)Nc1ccccc1C(F)(F)F (stereo not given),0.3%
COc1ccc(C)cc1N(CC(=O)NCc1ccc(Cl)cc1)S(=O)(=O)c1ccccc1,i
O=C(Oc1ccc(Cl)c2cccnc12)N1CCCC1,0.2%
CC(=O)Nc1cccc(-c2nc3ccccc3c(=O)o2)c1,4.0%
CCOC(=O)C1CCN(C(=O)Nc2ccc(Cl)cc2Cl)CC1,i
CC(=O)c1ccc(N2C(=O)c3cccc4cc([N+](=O)[O-])cc(c34)C2=O)cc1,2.5%
CC1=C(C(=O)OCc2ccccc2)C(c2ccc(F)c(Br)c2)CC(=O)N1 (stereo not given),i
COc1ccc(S(=O)(=O)Oc2cccc3cccnc23)c2ccccc12,5.8%
COc1ccc(NC(=S)N2CCN(c3ccccc3)CC2)cc1OC,i
COC(=O)c1ccccc1Sc1c(-c2ccccc2)nc2ncccn12,i
Cc1ccc(S(=O)(=O)N2CCN(Cc3ccccc3)CC2)c(C)c1C,3.9%
COc1ccc(OC)c(NC(=S)NCCc2ccc(F)cc2)c1,i
Cc1ccc2nc(NC(=O)c3ccc([N+](=O)[O-])cc3Cl)sc2c1,i
O=C(NCCCn1ccnc1)c1cc(-c2ccccc2)on1,i
Fc1cccc(COc2ccccc2C(=S)N2CCCC2)c1,6.0%
CCCCOc1ccccc1C1C(C(=O)OC)=C(C)NC2=C1C(=O)CC(c1cccs1)C2 (stereo not given),0.0%
O=C(CSc1nnc(Cc2ccccc2)n1-c1ccc(F)cc1)N1CCCC1,i
CC1CCc2c(sc3ncnc(NCCCN(C)C)c23)C1 (stereo not given),i
COc1ccc(NC(=O)CSc2nc3c(cc2C#N)CCCCC3)cc1OC,3.5%
CCc1cc(=O)oc2cc(C)cc(OCc3ccc(OC)cc3)c12,i
COCCNC(=O)c1ccc2c(c1)OCO2,i
O=C(O)CCNS(=O)(=O)c1ccc2c(c1)OCCO2,i
CS(=O)(=O)N(CC(=O)Nc1ccccc1Br)Cc1ccccc1,3.3%
CCSc1nnc(-c2ccncc2)n1-c1ccccc1,i
CC(=O)Nc1sccc1C(=O)Nc1ccc(Cl)cc1,4.2%
COCCCNC(=S)N1CCN(c2ccccn2)CC1,i
COc1ccc(Oc2c(-c3ccc(O)c(C)c3O)n[nH]c2C(F)(F)F)cc1,i
CC(=O)Cn1cnc2sc(C)c(C)c2c1=O,i
Cc1c(C(=O)Nc2sc3c(c2C(=O)NC2CCS(=O)(=O)C2)CCCC3)oc2ccccc12 (stereo not given),i
Cc1ccc(NC(=O)Nc2ccc(C(C)(C)C)cc2)cc1,i
CC(NC(=S)N1CCc2ccccc2C1)C12CC3CC(CC(C3)C1)C2 (stereo not given),i
Cc1ccc(C(Nc2ccccn2)c2ccc3cccnc3c2O)cc1 (stereo not given),i
O=C(OCc1ccc([N+](=O)[O-])cc1)c1ccc(Br)o1,?
COCCNC(=O)c1cc(-c2cccs2)nc2ccccc12,i
O=C(NC(NC(=S)Nc1c(Cl)cccc1Cl)C(Cl)(Cl)Cl)c1ccccc1 (stereo not given),i
Cc1ccc(SCCC(=O)Nc2ccc3c(c2)OCCO3)cc1,i
COc1ccc(Cl)cc1NC(=O)c1cccc(OC(C)C)c1,37.9%
COc1ccc(NC(=S)NC2CCCCC2)cc1,i
COc1cc(C2C3=C(CC(C)(C)CC3=O)NC3=C2C(=O)CC(C)(C)C3)c(Br)cc1OCC#N,i
O=C(CSc1ccccc1)Nc1ccc(C(=O)Nc2ccc(O)cc2)cc1,3.8%
COc1ccc2[nH]cc(CCNC(=S)NCCc3ccccc3)c2c1,i
Nc1nc2ccccc2n1C(=O)c1c(Cl)cccc1Cl,i
CC(C)Oc1ccc(C(=O)Nc2cccc(Br)c2)cc1,i
COc1ccc(CNC(=O)CN(Cc2cccc(Cl)c2)S(=O)(=O)c2ccc(C)cc2)cc1,i
CC(=O)NC(c1ccccc1)c1nc2ccccc2[nH]1 (stereo not given),i
Cc1cc(C)cc(NC(=O)CSc2nnc(N)s2)c1,0.1%
COCCCNC(=O)CN(Cc1ccccc1)S(=O)(=O)c1cc(Cl)ccc1Cl,i
Cc1cc(F)c(F)c(C(=O)Nc2cccc(C(F)(F)F)c2)c1Cl,2.9%
CCCC(=O)Nc1ccccc1NC(=O)COc1cccc(C)c1C,i
CCOC(=O)CCC(=O)Nc1ccccc1C(N)=O,i
COc1ccccc1N1CCN(C(=O)CCN2C(=O)c3cccc4cccc(c34)C2=O)CC1,1.4%
COc1cc(OC)cc(C(=O)N2CCC(C(=O)NCC(C)C)CC2)c1,i

(list continues)
SMILES,Mtb growth
COc1ccc(Cl)cc1C(=O)NNC(=S)NCc1ccc(Cl)cc1,i
O=[N+]([O-])c1ccccc1S(=O)(=O)Nc1ccc(NS(=O)(=O)c2ccccc2)cc1,i
Cc1ccn2cc(-c3ccc(NS(=O)(=O)c4ccccc4)cc3)nc2c1,i
COC(=O)c1c(N)n(CCC2=CCCCC2)c2nc3ccccc3nc12,1.2%
